Sa ugtP lethal – kills S. aureus RN4220 lacking UgtP; S. aureus RN4220 ugtP deletion, OD600 growth, 16 h; some inactives read as strong as hits; growth inhibition, % (test concentration not listed); 330,000 compounds, 0.54% hits;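 active = z-score under -3 and OD600 up to 0.15 on both plates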;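 also: plate controls were untreated wells for no effect and antibiotic for full effect; wells of about 80 µL received 100 nL stock; the first replicate is given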
PrP 5UTR inh – suppresses PrP 5' UTR mRNA reporter expression; cell-based PrP 5' UTR mRNA reporter, plate reader; inhibition, % (no concentration beside the values); 340,000 compounds, 0.35% hits; AID 488862;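 active = every replicate at 50% or more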;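 also: 0 = median of the neutral control wells; tested in H4 reporter cells; numbers are from one replicate; inactives centre near -14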
Sa RN4220 lethal – S. aureus RN4220 growth inhibition | OD600, 16 h | inhibition, % (no concentration beside the values) | 330,000 compounds, 0.33% hits | AID 1259311;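 active = z-score of -3 or lower and OD600 up to 0.18 on both plates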;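 also: plate controls were untreated cells for no effect and reference antibiotic for full effect; stock transfer was 100 nL into about 80 µL; one replicate is shown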
Mtb hypoxia rep – inhibitors of hypoxia-regulated fluorescent reporter in Mycobacterium tuberculosis; M. tuberculosis hypoxia-regulated fluorescent reporter, fluorescence; fluorescence inhibition, % (concentration not given with the values); 300,000 compounds, 0.1% hits; AID 1159583;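 active = 35 to 45% if threefold the growth effect, above 45% if 1.5-fold the growth effect; inactive = the rest, general growth blockers included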;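 also: wells of about 50 µL received 100 nL stock; 0% = vehicle wells and 100% = reference inhibitor wells; whole bacteria with a GFP reporter of the hypoxia response; strong numbers were not always called active; many hits fall short of the cut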
BJeLR viability – BJeLR cell viability loss; BJeLR (HRASV12) viability, CellTiter-Glo ATP luminescence, 48 h; reference of the scale not given here; inhibition, % (no concentration beside the values); 300,000 compounds, 0.17% hits;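 active = replicate mean above 50%; inconclusive = above 50% but judged a plate artefact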;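 also: 50 nL library stock added to about 25 µL; numbers are from one replicate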
Bead autofluor – compound fluorescence in toxin protease inhibitor counterscreen. compound autofluorescence counterscreen, microsphere flow cytometry; hits give high values. fluorescence intensity (no concentration beside the values). 360,000 compounds, 3.1% hits;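 active = at least 3 SD above the mean of all compounds, about 16000 in these data; inconclusive = too few beads counted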;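 also: 100 nL of 1 mM stock went into each well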
Mtb hypoxia rep growth – recorded beside Mtb hypoxia rep, whose call it bears; growth inhibition, %; measured here: M. tuberculosis growth (absorbance);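 0% = vehicle and 100% = reference antibiotic; read after six days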
Active calls of the source: *; ? = inconclusive; nt = no result given. Random draw from the library; any-hit rate near 4%.

cpd	Structure	Sa ugtP lethal	PrP 5UTR inh	Sa RN4220 lethal	Mtb hypoxia rep	Mtb hypoxia rep growth	BJeLR viability	Bead autofluor
1	O=C(/C=C/c1ccccc1)c1ccccn1	-10	-41	14	7	11	-8	3708
2	O=C(CSc1ccc(F)cc1)Nc1ccccc1N1CCOCC1	-3	-14	5.7	10	3	4	5367
3	O=C(N/N=C/c1ccoc1)c1ccc(Cl)cc1	nt	-24	nt	nt	nt	-2	5357
4	Cc1cccc(C=NNC(=O)c2cccc(Cl)c2)n1	-1	nt	0.7	11	3	nt	nt
5	N#Cc1cc2c(nc1SCc1cccnc1)CCCC2	-8	1	-0.9	3	0	-1	4737
6	O=C(COC(=O)c1ccc2ncsc2c1)Nc1ccccc1Cl	0	-15	7.1	-9	1	nt	5990
7	COc1ccc(N=C2SCC(c3ccc([N+](=O)[O-])cc3)=NN2CCO)cc1	nt	-22	nt	nt	nt	-14	4275
8	O=C(c1ccc(C(F)(F)F)cc1)C1CCCN(C(=O)c2csnn2)C1 (stereo not given)	2	-2	4.4	13	9	17	?
9	C#CCOCCOCCOCCNc1nc(N2CCOCC2)nc(N2CCN(C(=O)Cn3cc(CCCCN)nn3)CC2)n1	4	-20	5.4	17	8	nt	4105
10	COc1ccccc1NC(=O)CSc1nnc(C2CCCCC2)n1C	4	1	12	13	4	6	2458
11	[O-]c1c[n+](-c2ccc(-[n+]3cc([O-])on3)cc2)no1	-1	-14	11	4	8	-3	2649
12	Cc1ccc(OCCCCNC(C)c2ccccc2)c(C)c1 (stereo not given)	-9	-4	0.0	14	7	0	4210
13	C[N+](C)(C)CCCNC(=O)c1ccc(C=NO)nc1	9	nt	-2.6	-1	0	nt	nt
14	CC(=O)Nc1ccc(N2C(=O)c3cccc(NC(C)=O)c3C2=O)cc1	nt	-9	nt	nt	nt	4	2562
15	O=C(Cn1cnc2ccccc2c1=O)Nc1nnc(SCc2ccc(Cl)cc2)s1	-6	-19	3.3	8	1	-16	3517

An excerpt of these results, with two lines to a compound.
Order of results: Sa ugtP lethal	PrP 5UTR inh	Sa RN4220 lethal	Mtb hypoxia rep	Mtb hypoxia rep growth	BJeLR viability	Bead autofluor
(9) C#CCOCCOCCOCCNc1nc(N2CCOCC2)nc(N2CCN(C(=O)Cn3cc(CCCCN)nn3)CC2)n1
    4	-20	5.4	17	8	nt	4105
(10) COc1ccccc1NC(=O)CSc1nnc(C2CCCCC2)n1C
    4	1	12	13	4	6	2458
(11) [O-]c1c[n+](-c2ccc(-[n+]3cc([O-])on3)cc2)no1
    -1	-14	11	4	8	-3	2649
(12) Cc1ccc(OCCCCNC(C)c2ccccc2)c(C)c1 (stereo not given)
    -9	-4	0.0	14	7	0	4210
(13) C[N+](C)(C)CCCNC(=O)c1ccc(C=NO)nc1
    9	nt	-2.6	-1	0	nt	nt

Next results
cpd	Structure	Sa ugtP lethal	PrP 5UTR inh	Sa RN4220 lethal	Mtb hypoxia rep	Mtb hypoxia rep growth	BJeLR viability	Bead autofluor
16	CS(=O)(=O)N(CC(=O)N1CCN(Cc2ccccc2)CC1)c1ccc(F)cc1	9	-7	3.1	-5	3	15	3643
17	CCNc1nc(NCC)nc(Oc2ccc(N)cc2)n1	1	-8	6.0	nt	nt	-8	2843
18	O=C(NCc1nc2ccccc2[nH]1)C1=C[C@@H](c2csc3ccccc23)C[C@@H](OCc2ccc(CO)cc2)O1	nt	-3	nt	nt	nt	-12	3697
19	CCOC(=O)c1ccc(NC(=S)N2CCSC2c2c(F)cc(F)cc2F)cc1 (stereo not given)	10	-30	-8.3	1	6	4	2106
20	COC(=O)C1=C(c2ccc(F)cc2OCc2ccccc2)CC2CCC1N2C(=O)N1CCC(O)(c2ccc(Cl)cc2)CC1 (stereo not given)	-30	nt	-7.4	1	4	nt	nt
21	Cc1sc2ncnc(-n3nnc4ccccc43)c2c1C	-23	-6	-2.2	-3	-4	-2	2575
22	CCOC(=O)CNC(=O)c1ccc(Cl)s1	3	-5	3.4	-2	-3	9	3883
23	COc1cc(C(=O)NCc2ccco2)c(Br)c(OC)c1OC	14	-7	2.0	12	8	6	9045
24	Cc1nn(-c2ccccc2)c2nc(C(Cl)(Cl)Cl)[nH]c(=O)c12	21	-14	-3.2	12	8	2	4377
25	O=C(O)COc1ccccc1C=NNC(=O)Cc1csc(Nc2cccc(C(F)(F)F)c2)n1	-4	nt	-0.2	12	-6	nt	nt
26	O=C(O)c1cc(NCc2cccs2)ccc1N1CCOCC1	13	-13	6.3	22	0	-9	?
27	CCC(=O)N1CCN(c2ccc(NC(=O)c3ccc([N+](=O)[O-])o3)cc2)CC1	0	-10	47	nt	nt	-4	3372
28	CCC1Sc2ccccc2N(CC(=O)NCCC(C)C)C1=O (stereo not given)	-3	-32	0.9	8	9	3	9797
29	Cc1ccc(NC(=S)NCCc2c[nH]c3ccccc23)c(C)c1	1	4	2.3	-6	-5	7	4262
30	COc1ccc(C2=NOC(C(=O)Nc3cccc(O)c3)C2)cc1 (stereo not given)	5	-6	4.8	6	10	0	3025
31	COc1ccc(NC(=O)C2(S(=O)(=O)c3ccc(C)cc3)CC2)cc1OC	7	-7	2.9	1	-1	-7	4138
32	CC12CCC(C(=O)Nc3ccccc3N3CCOCC3)(CC1=O)C2(C)C (stereo not given)	-7	-15	-3.3	-2	11	2	3412
33	Cc1ccc(C(=O)CCC(=O)Nc2ccccc2C)cc1C	6	-18	3.1	9	13	5	3599
34	CCn1c(=O)cc(SCC(=O)NCCN2CCN(Cc3ccccc3)CC2)c2ccccc21	9	-21	3.3	11	9	1	22769*
35	Cc1cccc(C(=O)NNC(=O)c2ccc(O)cc2)c1	2	-16	1.4	10	4	-3	3777
36	CC(C)(C)c1nc(Sc2ccc([N+](=O)[O-])cn2)n[nH]1	1	-23	2.3	-1	9	1	3576
37	CC1(C(=O)Nc2ccc(S(=O)(=O)Nc3ncccn3)cc2)CCCC1	6	-8	6.2	15	16	nt	3692
38	Cn1c(/C(C#N)=C/c2ccc(O)cc2)nc2ccccc21	11	-20	2.5	3	3	-3	4534
39	O=C(NNC(=O)c1cccs1)Nc1cccc(Cl)c1	nt	-24	nt	nt	nt	0	3299
40	Cc1nn(S(=O)(=O)c2ccc([N+](=O)[O-])cc2)c(C)c1Sc1ccccc1	-4	nt	-7.2	-7	-4	21	11019
41	Cc1ccc(NC(=O)CCSc2ccccn2)cc1	8	-117	1.2	3	2	6	10944
42	CC(=O)N1CCN(S(=O)(=O)c2cccc(C(=O)NC3CCC(C)CC3)c2)CC1 (stereo not given)	20	-35	5.7	5	-1	12	3173
43	O=C1NC(Cc2ccccc2)C(=O)N1Cc1cc([N+](=O)[O-])cc2c1OCOC2 (stereo not given)	2	71*	2.8	-4	4	0	4481
44	COc1ccc(Nc2nnc(SCC(=O)Nc3ccc4[nH]c(=O)[nH]c4c3)s2)cc1	-14	-13	-1.7	-7	9	-2	4524
45	N/C(=N/OC(=O)c1ccc(Cl)cc1)c1ncc([N+](=O)[O-])s1	nt	-33	nt	nt	nt	3	3682
46	CC(=O)Nc1cccc(C(=O)OCCCOc2ccc(F)cc2)c1	7	-19	1.4	-4	-11	-6	?
47	O=C(O)c1cccc2c1/C(=N/O)c1ccccc1-2	nt	1	nt	nt	nt	-10	3124
48	Cc1ccc(NC(=O)CSc2nc(O)cc(=O)n2-c2ccc(C)cc2)cc1	6	-13	2.0	-3	-2	-1	4736
49	O=C(CCC(=O)Nc1ccccc1)NN=Cc1ccccc1F	6	nt	2.5	4	2	nt	nt
50	CCOC(=O)/C(=N\Nc1ccccc1Cl)N1CCN(Cc2ccccc2)CC1	nt	-5	nt	nt	nt	-3	2016
51	Cn1cccc1-c1cc(C(=O)NN=Cc2cccc(O)c2)[nH]n1	-5	nt	-1.0	15	13	nt	nt
52	COc1ccc(Cc2nc(-c3ccc(Br)o3)no2)cc1OC	5	-43	3.2	nt	nt	-6	5893
53	Cc1ccccc1OCC(=O)N=Nc1c(O)n(C)c2ccccc12	3	-28	3.1	11	-4	6	5208
54	Cc1cc(C=NNC(=O)C(=O)N2CCCC2)c(C)n1-c1cccc(Br)c1	-9	nt	5.1	17	8	nt	nt
55	CCn1cc(S(=O)(=O)NCCc2ccccc2OC)cn1	-7	-18	-2.8	-8	-1	5	6308
56	Fc1ccccc1N1CCN(c2nc3ccccc3n3nnnc23)CC1	17	-24	14	nt	nt	0	2498
57	COc1cccc(C2c3c(oc4ccc(F)cc4c3=O)C(=O)N2CCN2CCOCC2)c1OC (stereo not given)	-3	-17	-11	-2	-1	2	6493
58	Cn1c(SCC(=O)Nc2ccccc2F)nnc1-c1cccnc1	13	-26	2.7	nt	nt	-3	6351
59	COc1cc(/C=N/NC(=O)c2cc(-c3cccn3C)n[nH]2)cc(OC)c1OC	nt	-61	nt	nt	nt	8	9787
60	O=c1c2[nH]c3ccc(Cl)cc3c2ncn1CCN1CCCCC1	-4	-19	-16	18	7	3	2957
61	O=C(CNc1ccc2c(c1)OCO2)NN=Cc1ccccc1Cl	-10	nt	10	7	1	nt	nt
62	COC(=O)C1=C(c2ccc(-c3ccccc3)c(F)c2)CC2CCC1N2C(=O)NC1CCCCC1 (stereo not given)	-26	nt	3.3	0	8	nt	nt
63	O=C(/C=C/c1ccc(OCCCF)cc1)N1CCN(Cc2ccccc2)CC1	-1	-17	3.8	6	-1	-3	3075
64	CCC1Oc2ccccc2N(CC(=O)NC2CCCCC2)C1=O (stereo not given)	101*	-13	9.7	1	6	-1	3765
65	COC(=O)c1cc2oc(C)cc2n1CC(=O)N(C)c1ccccc1	-8	-34	6.1	1	-1	-11	8279
66	N#Cc1nc(COc2ccc(F)cc2)oc1N1CCCC1	5	4	7.5	nt	nt	3	3969
67	Cc1ccc(N(C(=O)CCC(=O)Nc2cc(C)on2)C(C(=O)NC2CCCC2)c2ccncc2)cc1 (stereo not given)	4	-14	3.1	1	8	-6	3874
68	CCCCC(NC(=O)c1cccc(Br)c1)C(=O)O (stereo not given)	5	-8	0.7	1	-5	4	4610
69	COc1cc(C=NNC(=O)C(=O)NCc2ccco2)cc(Br)c1O	1	nt	3.0	15	11	nt	nt
70	CCOC(=O)N1CCC(N2CCN(S(=O)(=O)c3ccc([N+](=O)[O-])cc3)CC2)CC1	1	-21	15	10	4	8	5761
71	COc1ccc(-n2c(SCC(N)=O)nnc2-c2cccnc2)cc1	-4	-24	-2.3	5	5	1	6596
72	O=C(C=Cc1ccccc1)N1CCC(Cc2ccccc2)CC1	-10	nt	1.2	4	-4	nt	nt
73	COC(=O)[C@@]12CCCCN1[C@H](c1ccc(-c3ccc(F)cc3)cc1)[C@@H]1C(=O)N(C)C(=O)[C@@H]12	nt	0	nt	nt	nt	-5	4112
74	COc1ccc(C2=C(C#N)C(=O)OC2)cc1	-7	-18	8.4	12	8	10	11328
75	COc1ccc(C2CC(C(F)(F)F)n3ncc(C(=O)Nc4c(C)n(C)n(-c5ccccc5)c4=O)c3N2)cc1 (stereo not given)	15	-23	6.1	12	11	3	8782

The listing continues.
cpd	Structure	Sa ugtP lethal	PrP 5UTR inh	Sa RN4220 lethal	Mtb hypoxia rep	Mtb hypoxia rep growth	BJeLR viability	Bead autofluor
76	COc1ccccc1NC(=O)COc1ccc2c(c1)OCO2	5	-20	5.4	2	3	0	?
77	Cc1cccc(C)c1NC(=O)c1ccc(-n2cncn2)nc1	2	-46	5.2	7	12	-7	3080
78	CCCCn1c(=O)c(C=Nc2ccc(Cl)cc2)c(O)n(Cc2ccco2)c1=O	1	-5	8.7	8	6	2	2055
79	CCn1cc(/C=N\NC(=O)Cc2ccc(Cl)cc2)cn1	nt	-16	nt	nt	nt	9	1956
80	CCCCn1c(N)c(N(CCOC)C(=O)c2nn(CC)c(=O)c3ccccc23)c(=O)[nH]c1=O	6	-13	3.1	2	-2	-3	?
81	COC(=O)C1=C(c2cc3ccccc3o2)C[C@@H]2CC[C@H]1N2C(=O)NCc1ccco1	nt	6	nt	nt	nt	9	3941
82	O=C(NCCO)Nc1ccc(Cl)cc1	0	-16	3.1	-7	-4	-3	3584

Arranged by number of heavy atoms (ascending): some entries from above
cpd	Structure	Sa ugtP lethal	PrP 5UTR inh	Sa RN4220 lethal	Mtb hypoxia rep	Mtb hypoxia rep growth	BJeLR viability	Bead autofluor
1	O=C(/C=C/c1ccccc1)c1ccccn1	-10	-41	14	7	11	-8	3708
52	COc1ccc(Cc2nc(-c3ccc(Br)o3)no2)cc1OC	5	-43	3.2	nt	nt	-6	5893
27	CCC(=O)N1CCN(c2ccc(NC(=O)c3ccc([N+](=O)[O-])o3)cc2)CC1	0	-10	47	nt	nt	-4	3372
